Source: PubChem
MARV entry inh = inhibitors of Marburg virus binding or cell entry; Marburg virus pseudotyped entry inhibition, cell reporter; control for the full effect not named in the record; about a third of the inactives were read at about 46 µM; Potency, µM (top dose mostly 37.8 µM), without a hit: top-dose activity change, negative = inhibition, most hits filed as inhibitors; 300,000 tested, 1.8% active; AID 540276; active = well fitted inhibition curve with a large enough effect; inconclusive = small, poorly fitted or top-dose-only effect, or effect the other way; inactive = flat fitted curve, though single readings scatter; tested in HEK293 cells; about a fifth of its hits are not listed in these tables; also: % is scaled to controls: 0 for no effect and ±100 for the full control effect; luciferase read-out
SARS PLpro yeast = inhibitors of SARS-CoV papain-like protease in yeast. S. cerevisiae expressing SARS-CoV PLpro, growth rescue; control for the full effect not named in the record. Potency, µM (series often up to 32.9 µM), without a hit: at the top dose activity, positive = growth rescue. 330,000 tested, 0.19% active. AID 485353; active means well fitted rising curve with a large enough effect; inconclusive means small, poorly fitted or top-dose-only effect; inactive means no such curve, though single readings can be large or run the other way; also: 0% is about no effect; nearly all actives have a fitted effect of over 55% in size; growth read by luminescence after 48 h
Cruzain Triton = cruzain (T. cruzi) inhibition with detergent | P25779 | purified cruzain, Z-FR-AMC fluorescence, 0.01% Triton | Potency, µM, for the others: max response, negative = inhibition, most hits filed as inhibitors | 200,000 tested, 0.43% active;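 also: plate controls were neutral wells for no effect and buffer without enzyme for full effect; nearly all actives have a fitted effect of over 40% in size; top concentration of the series not given in the record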
Target sequence (P25779 123-467 limits assumed): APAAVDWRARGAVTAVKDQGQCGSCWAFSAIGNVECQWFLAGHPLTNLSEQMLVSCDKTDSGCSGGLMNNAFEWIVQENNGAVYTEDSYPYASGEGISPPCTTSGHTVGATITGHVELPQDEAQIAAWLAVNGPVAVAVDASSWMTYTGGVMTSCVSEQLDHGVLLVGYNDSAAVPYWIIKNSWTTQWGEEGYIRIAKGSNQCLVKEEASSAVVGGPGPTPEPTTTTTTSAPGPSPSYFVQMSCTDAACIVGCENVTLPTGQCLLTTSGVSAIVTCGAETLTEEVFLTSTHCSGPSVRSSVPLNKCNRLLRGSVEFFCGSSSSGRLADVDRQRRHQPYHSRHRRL
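Cruzain (1.5 nM) preincubated 15 min at RT with compound in 100 mM sodium acetate pH 5.5, 5 mM DTT, 0.01% Triton X-100. Reaction started with 2 uM Z-FR-AMC; AMC fluorescence (ex 360/em 450 nm) change over 60 s gave rate.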
Lassa entry inh = Lassa virus entry inhibition; Lassa virus pseudotype entry inhibition, cell reporter; control for the full effect not named in the record; Potency, µM (doses to about 37.9 µM), for inactives: at the highest dose activity change, negative = inhibition, most hits filed as inhibitors; 300,000 tested, 1.2% active; active means well fitted inhibition curve with a large enough effect; inconclusive means small, poorly fitted or top-dose-only effect, or effect the other way; inactive means flat fitted curve, though single readings scatter; tested in HEK293 cells; also: % is scaled to controls: 0 for no effect and ±100 for the full control effect; nearly all actives have a fitted effect of over 50% in size; luciferase read-out
StopGo reporter = lowers the luciferase signal of an FMDV 2A StopGo reporter | 410,000 tested, 1.2% active | AID 1159524 | human cells with a luciferase reporter of 2A StopGo recoding; control for the full effect not named in the record | Potency, µM (top dose mostly 57.9 µM), for the others: top-dose signal change, negative = less light; active = well fitted falling curve with a large enough effect; inconclusive = small, poorly fitted or top-dose-only effect; inactive = no such curve, though single readings can be large or run the other way; tested in HEK293T cells; also: % is scaled to controls: 0 for no effect and ±100 for the full control effect; nearly all actives have a fitted effect of over 45% in size; luciferase light after 4 h
RE007 growth inh = less growth of the S. pombe RE007 Vpr strain | S. pombe RE007 Vpr strain, BacTiter-Glo ATP luminescence, 24 h; control for the full effect not named in the record | Potency, µM (top dose mostly 92.2 µM), inactives show at the highest dose activity change, negative = less growth | 360,000 tested, 0.21% active; active = well fitted falling curve with a large enough effect; inconclusive = small, poorly fitted or top-dose-only effect; inactive = no such curve, though single readings can be large or run the other way;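 also: % is scaled to controls: 0 for no effect and ±100 for the full control effect; nearly all actives have a fitted effect of over 50% in size; the assay follows cell death caused by Vpr and the record does not say whether a fall means rescue or toxicity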
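Fission yeast strain RE007, carrying one chromosomally integrated HIV-1 vpr copy, was seeded at OD 0.01 in PMG+AL medium with 23 nL pinned compound. After 24 h at 30 °C and 99% humidity, viability was read by BacTiter-Glo luminescence.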
NS1 function inh = inhibitors of influenza NS1 protein function | AID 2326 | Potency, µM (highest dose often 46.1 µM), for the others: at the top dose activity, positive = more growth | S. cerevisiae slowed by influenza A NS1, growth recovery by OD600 | 270,000 tested, 0.4% active; active means well fitted rising curve with a large enough effect; inconclusive means small, poorly fitted or top-dose-only effect; inactive means no such curve, though single readings can be large or run the other way; also: nearly all actives have a fitted effect of over 50% in size
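Read-out: OD600 growth recovery of NS1-expressing budding yeast. Cells grown overnight at 30C in -URA glucose medium, washed, resuspended and diluted 1:100 in 2% galactose assay medium, pH 6.0. Same strain lacking NS1 served as positive control.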
Cruzain inh noDet = inhibitors of Trypanosoma cruzi cruzain without detergent. Potency, µM, for the others: max response, negative = inhibition, actives largely listed as inhibitors. purified cruzain, Z-FR-AMC fluorescence, no detergent. 200,000 tested, 2.3% active;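 also: plate controls were enzyme without inhibitor for no effect and buffer without enzyme for full effect; nearly all actives have a fitted effect of over 40% in size; top concentration of the series not given in the record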
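Purified cruzain at 1.5 nM, pre-incubated 15 min with compound at room temperature in 100 mM sodium acetate pH 5.5, 5 mM DTT, 0.00005% Triton X-100. Reaction started with 2 uM Z-FR-AMC; AMC fluorescence increase over 60 s gives rate.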
* hit, by the source's call; ? = inconclusive; . = not tested or not shown; [ ] = dose if it differs, or a comment. Unless noted, calls follow the shape of the dose curve; as a rule, active = well fitted curve in the direction sought with a large enough effect; inconclusive = small, poorly fitted or top-dose-only effect, or another doubt; inactive = no such curve, though single readings can be large; an effect the other way counts as inactive or inconclusive. Potency is read from the fitted curve at half-maximal effect.

Results follow in this order: MARV entry inh	SARS PLpro yeast	Cruzain Triton	Lassa entry inh	StopGo reporter	RE007 growth inh	NS1 function inh	Cruzain inh noDet
1	COc1ccc(CCNC(=O)CSc2nnc(CNC(=O)c3ccco3)o2)cc1OC
→ 9%[46.1 µM]	17%	0.3%	13%	3%	16%	1%	-4%
2	C#Cc1ccc([C@@H]2C=C(C(=O)N3CCOCC3)O[C@H](OCCCCO)C2)cc1
→ .	-1%	.	.	-3%	-9%	2%	.
3	CCOC(=O)c1oc2c(C)c(O)ccc2c(=O)c1-c1nncn1-c1ccccc1
→ 2%	1%	0.2%	24%	27%	2%	-14%	-2%
4	O=C(Nc1ccc(Cl)c(Cl)c1)OCc1cncs1
→ 7%	-19%	-3.1%	-6%	-4%	23%	3%	2%
5	CCN(CC)c1ccc(/C=N/Nc2nn[nH]n2)cc1
→ .	10%	.	.	11%	5%	-58%	.
6	Cc1ccc(Cn2cccc(C(=O)Nc3ccc4c(c3)OCO4)c2=O)cc1
→ .	.	0.5%	11%[46.1 µM]	-25%	.	.	0%
7	Cn1cc(C(=O)N/N=C/C2=C(N3CCOCC3)C(=C\c3ccccc3)/CC2)ccc1=O
→ ?	-30%	-6.7%	?	?	20%	11%	?
8	CCn1c(COc2cccc(C)c2C)nnc1SCC(=O)Nc1cc(C)on1
→ -1%[46.1 µM]	0%	.	1%	-15%	9%	8%	.
9	CN(Cc1ccc(F)cc1)C(=O)CNC(=O)C1CCCCC1
→ .	-2%	.	.	0%	0%	0%	.
10	Cc1cc(C)cc(NC(=O)C2CCN(S(C)(=O)=O)CC2)c1
→ 14%[46.1 µM]	3%	.	5%[46.1 µM]	1%	-2%	19%	.
11	CCN(CC)c1ccc(S(=O)(=O)N(CC)CC)cc1NC(=O)C1CCCC1
→ ?	0%	.	7.9µM*	-6%	-7%	2%	.
12	O=C(CCn1cncn1)N1CCN(S(=O)(=O)c2ccc(Cl)cc2)CC1
→ 24%[46.1 µM]	3%	.	16%	-6%	20%	15%	.
13	O=C(CSc1nc2c(oc3ccccc32)c(=O)n1Cc1ccco1)Nc1ccccc1
→ 11%[46.1 µM]	.	0.0%	.	-24%	.	.	5%
14	CN(CC(=O)Nc1ccc(F)cc1)C(=O)c1ccncc1
→ -1%[46.1 µM]	1%	.	14%[46.1 µM]	12%	-12%	-12%	.
15	COc1cccc(S(=O)(=O)Nc2ccc3c(c2)OCCO3)c1
→ -12%	1%	.	-6%	-22%	7%	12%	.
16	CNC(=S)N1CCN(CCN=Cc2c(O)n(-c3ccc(C)cc3)c(=S)[nH]c2=O)CC1
→ .	2%	.	.	-12%	0%	-3%	.
17	Cc1cccc(N2CCN(c3ccc4cc(S(=O)(=O)N5CCCCC5)ccc4n3)CC2)c1C
→ 28%[46.1 µM]	-1%	.	-12%[46.1 µM]	?	0%	2%	.
18	COc1ccc(CC(=O)OCC(=O)NCCNC(=O)COC(=O)Cc2ccc(OC)cc2)cc1
→ 9%[46.1 µM]	0%	.	6%	-12%	8%	.	.
19	CCCCn1c(N)c(N(CC(C)C)C(=O)c2cccc(S(=O)(=O)N(C)c3ccccc3)c2)c(=O)[nH]c1=O
→ -3%	-4%	.	3%[46.1 µM]	8%	-15%	.	.
20	Cc1[nH]n(-c2ccc(Cl)cc2)c(=O)c1C(=O)c1ccccc1
→ ?	1%	.	?	-27%	-30%	-49%	.

2 compounds drawn at random from the list so far, as already listed:
Results follow in this order: MARV entry inh	SARS PLpro yeast	Cruzain Triton	Lassa entry inh	StopGo reporter	RE007 growth inh	NS1 function inh	Cruzain inh noDet
6	Cc1ccc(Cn2cccc(C(=O)Nc3ccc4c(c3)OCO4)c2=O)cc1
→ .	.	0.5%	11%[46.1 µM]	-25%	.	.	0%
20	Cc1[nH]n(-c2ccc(Cl)cc2)c(=O)c1C(=O)c1ccccc1
→ ?	1%	.	?	-27%	-30%	-49%	.

(more compounds)
Results follow in this order: MARV entry inh	SARS PLpro yeast	Cruzain Triton	Lassa entry inh	StopGo reporter	RE007 growth inh	NS1 function inh	Cruzain inh noDet
21	CC(C)CCOP(N)(=O)Oc1ccccc1Cl (stereo not given)
→ .	2%	.	.	0%	-17%	-6%	.
22	O=C(COc1ccccc1Cl)Nc1ccc2oc(=O)ccc2c1
→ -2%[46.1 µM]	-9%	.	1%	18%	3%	-10%	.
23	CN(CC(=O)Nc1ccccc1Cl)C(=O)CCSc1ccc(F)cc1
→ -9%	0%	.	-25%[46.1 µM]	-18%	1%	.	.
24	COc1cc(N=Nc2ccccc2C(=O)O)ccc1O
→ .	0%	.	.	74%[activator]	-8%	6%	.
25	COc1ccc(C(CC(=O)N2CCCC2)c2c(OC)cc(OC)c3ccc(=O)oc23)cc1 (stereo not given)
→ .	1%	.	.	0%	6%	0%	.
26	Cc1cc(=O)[nH]c(SCC(=O)NC2CCCCC2)n1
→ 0%[46.1 µM]	-3%	.	16%[46.1 µM]	-1%	2%	4%	.
27	Clc1ccc2nc(C3CCN(Cc4nnnn4C4CCCCC4)CC3)[nH]c2c1
→ ?	-1%	-4.8%	?	-10%	20%	-2%[9.22 µM]	6%
28	CCOC(=O)C1CCN(C(=O)c2sc3nc(-c4ccccc4)cn3c2C)CC1
→ -3%	-1%	1.5%	5%	3%	2%	-70%	19%
29	COc1cccc(/C=N/n2c(C)nc3ccccc3c2=O)c1O
→ 25%	-5%	-1.1%	12%	1%	-17%	-23%	6%
30	Cc1cc(=O)oc2cc(OCC3CC(c4ccccc4Cl)=NO3)ccc12 (stereo not given)
→ ?	-6%	-5.5%	-9%	16%	-3%	-10%	2%
31	O=C(CNC(=O)N1CC(=O)Nc2ccccc21)Nc1ccccc1
→ .	?	.	.	-3%	20%	-5%	.
32	O=C(OCC(=O)N1CCCc2ccccc21)c1cc(S(=O)(=O)N2CCOCC2)ccc1Cl
→ -3%[46.1 µM]	-6%	.	1%	-20%	?	.	.
33	CCCCN(Cc1ccco1)S(=O)(=O)c1csc(C(N)=O)c1
→ .	-9%	.	.	4%	6%	-4%	.
34	COc1cccc(C(=O)C2CCCN(C(=O)CCc3scnc3C)C2)c1 (stereo not given)
→ -25%[46.1 µM]	0%	.	?	-14%	19%	-1%	.
35	O=C(NC(=S)N(Cc1ccccc1)Cc1ccccc1)c1ccccc1F
→ ?	-5%	-1.2%	-27%	9%	-6%	-35%	1%
36	CC(C)(NO)/C(=N/O)c1ccc(Br)cc1
→ 9%	3%	-8.6%	5%	0%	18%	-6%	10%
37	O=C(NCCCN1CCOCC1)c1cc2ccccc2oc1=O
→ 4%	-3%	-3.8%	8%	37%[activator]	19%[3.69 µM]	4%	-8%
38	COc1ccc(C(=O)NCCCNC(=O)c2ccccn2)cc1Br
→ 1%[46.1 µM]	0%	.	-14%[46.1 µM]	4%	11%	-2%	.
39	COc1cc2c(cc1OC)C(c1ccccc1)N(C(=O)c1ccco1)CC2 (stereo not given)
→ .	-18%	-6.5%	.	-11%	5%	-35%	4%
40	O=C(NCCCc1ccccc1)c1ccc([N+](=O)[O-])cc1Cl
→ ?	2%	.	-2%[46.1 µM]	5%	-13%	5%	.
41	CCCCn1cc(S(=O)(=O)c2ccc(F)cc2)c(=O)c2ccccc21
→ -19%[46.1 µM]	.	1.2%	1%[46.1 µM]	11%	.	.	0%
42	O=C(NC1CCCCCC1)C1C2C=CC3(CN(Cc4cccnc4)C(=O)C13)O2 (stereo not given)
→ .	-9%	1.1%	.	0%	7%	-2%	-6%
43	CCCNS(=O)(=O)c1ccc(CCC(=O)N2CCN(c3ccc(F)cc3)CC2)cc1
→ -33%	6%	-1.8%	4%	?	14%	4%	-9%
44	COc1ccc(NC(=O)c2ccccc2SC)cc1OC
→ 10%	4%	3.6%	12%	30%	-25%	-10%	-3%
45	CCOC(=O)N1CCN(C(=O)C2CCN(Cc3ccc(OC)cc3OC)CC2)CC1
→ ?	3%	6.7%	-7%	-23%	5%	8%	1%
46	CCCn1c2ccc(/C(C)=N\O)cc2c2cc(/C(C)=N/O)ccc21
→ ?	-1%	-5.2%	-5%	-19%	24%	4%	-6%
47	O=C(CN1C(=O)COc2ccc(Cl)cc21)Nc1ccccn1
→ -1%	0%	.	14%	-30%	4%	11%	.
48	Cc1cc(OCC(=O)NCCc2ccc(S(N)(=O)=O)cc2)c2c(C)c(C)c(=O)oc2c1
→ -3%[46.1 µM]	-2%	.	?	-8%	-17%	3%	.
49	O=S(=O)(Cc1ccccc1)NCC1CCCO1 (stereo not given)
→ 3%	0%	0.7%	6%	29%	7%	14%	-4%
50	Cc1ccc(S(=O)(=O)NC2=C(N3CCN(Cc4ccccc4)CC3)C(=O)c3ccccc3C2=O)cc1
→ -17%	0%	-5.2%	11%	-21%	-16%	7%	-5%
51	Cc1cccc(-c2nc3c4ccccc4nc(NCCc4ccccc4)n3n2)c1
→ 15%[46.1 µM]	.	-2.5%	.	14%	.	.	16%
52	CCC(NS(=O)(=O)c1ccc2c(c1)Cc1cc(S(=O)(=O)NC(CC)C(=O)O)ccc1-2)C(=O)O (stereo not given)
→ .	1%	.	.	-19%	12%	14%	.
53	Cc1cc(C)c(C)c(S(=O)(=O)N2CCC(C(=O)Nc3ccncc3)CC2)c1C
→ ?	-3%	.	3%	?	-5%	-33%	.
54	Clc1cccc(C2NCCc3[nH]cnc32)c1 (stereo not given)
→ ?	0%	0.5%	4%	3%	11%	16%	-5%
55	Cc1cccc(NC(=O)CSc2nnc(-c3ccncc3)n2CC2CCCO2)c1 (stereo not given)
→ ?	1%	.	.	7%	6%	-1%	.
56	CC(C)c1ccc(NC(=O)C2CCCN(S(=O)(=O)c3ccc4[nH]c(=O)oc4c3)C2)cc1 (stereo not given)
→ .	.	-3.1%	8%[46.1 µM]	2%	.	.	-7%
